Screening results as filed in PubChem BioAssay.
Sa ugtP lethal: growth inhibition of ugtP-null S. aureus, primary screen, RN4220 ugtP deletion, OD600 | 16 h; some inactives read as strong as hits | growth inhibition, % (no concentration beside the values) | 330,000 tested, 0.54% active;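 active = z-score under -3 and OD600 up to 0.15 on both plates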;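 also: plate controls were untreated wells for no effect and antibiotic for full effect; wells of about 80 µL received 100 nL stock; the first replicate is given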
PrP UTR inh: inhibition of PrP 5' UTR reporter expression | 340,000 tested, 0.35% active | cell-based PrP 5' UTR mRNA reporter, plate reader | inhibition, % (concentration not given with the values);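 active = every replicate at 50% or more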;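 also: 0 = median of the neutral control wells; tested in H4 reporter cells; numbers are from one replicate; inactives centre near -14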
RN4220 kill: growth inhibition of S. aureus RN4220, primary screen, OD600; 330,000 tested, 0.33% active; AID 1259311, 2017; 16 h; inhibition, % (test concentration not listed);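 active = z-score of -3 or lower and OD600 up to 0.18 on both plates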;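 also: plate controls were untreated cells for no effect and reference antibiotic for full effect; stock transfer was 100 nL into about 80 µL; one replicate is shown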
Autofluor counter: flagged as autofluorescent in microsphere protease counterscreen | fluorescence intensity (test concentration not listed) | compound autofluorescence counterscreen, microsphere flow cytometry; active compounds read high | 360,000 tested, 3.1% active;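 active = at least 3 SD above the mean of all compounds, about 16000 in these data; inconclusive = too few beads counted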;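 also: 100 nL of 1 mM stock went into each well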
Mtb hypoxia inh: PubChem AID 1159583; M. tuberculosis hypoxia-regulated fluorescent reporter, fluorescence; fluorescence inhibition, % (concentration not given with the values); 300,000 tested, 0.1% active;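 active = 35 to 45% if threefold the growth effect, above 45% if 1.5-fold the growth effect; inactive = the rest, general growth blockers included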;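 also: wells of about 50 µL received 100 nL stock; 0% = vehicle wells and 100% = reference inhibitor wells; whole bacteria with a GFP reporter of the hypoxia response; strong numbers were not always called active; many hits fall short of the cut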
BJeLR lethal: MLPCN primary cell-based screen for lethality selective to Ras in HRASV12 cells; BJeLR (HRASV12) viability, CellTiter-Glo ATP luminescence, 48 h; reference of the scale not given here; inhibition, % (no concentration beside the values); 300,000 tested, 0.17% active;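 active = replicate mean above 50%; inconclusive = above 50% but judged a plate artefact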;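 also: 50 nL library stock added to about 25 µL; numbers are from one replicate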
Mtb hypoxia inh growth: also measured in Mtb hypoxia inh; calls as there; growth inhibition, %; measured here: M. tuberculosis growth (absorbance);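 0% = vehicle and 100% = reference antibiotic; read after six days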
Starred values were filed as active, the others as inactive; ? = inconclusive; nt = not tested or not shown.

SMILES	Sa ugtP lethal	PrP UTR inh	RN4220 kill	Autofluor counter	Mtb hypoxia inh	Mtb hypoxia inh growth	BJeLR lethal
Cc1ccc(-c2nnn(CC(=O)N(c3ccccc3F)C(C(=O)NC3CCCC3)c3ccncc3)n2)o1 (stereo unspecified)	-2	-11	-1.9	5628	6	7	-2
CCCCc1cc(=O)oc2cc(C)cc(OCC(=O)NCCN3CCOCC3)c12	6	0	2.0	4609	8	-1	-1
c1ccc2cc(CCOC3CCCCO3)ncc2c1 (stereo unspecified)	1	nt	1.6	nt	5	-5	nt
O=C(OCC(=O)N1CCN(C(=O)c2ccco2)CC1)c1ccccc1Cc1ccccc1	39	-40	-2.5	8154	4	2	2
O=C(OCCOc1ccc(Br)cc1)c1ccc(Cl)c(S(=O)(=O)N2CCOCC2)c1	-8	-9	2.7	?	6	-1	-5
CC(N)Cc1cn(Cc2ccccc2)c2ccccc12 (stereo unspecified)	-7	-8	-6.0	3299	5	1	-2
COc1ccc([N+](=O)[O-])cc1NC(=O)CCS(=O)(=O)c1ccc(Br)cc1	nt	-23	nt	3789	nt	nt	-2
CCOc1ccc(OCC(=O)Nc2ccc(N3CCCCC3)cc2)cc1	4	-15	2.6	6532	4	4	-8
COc1ccc(Cl)cc1NC(=S)N(CCCN1CCOCC1)Cc1cn(C)c2ccccc12	8	-25	-1.6	11059	6	-5	-3
NNC(=O)c1cc2ccccc2cc1O	-6	26	2.0	1970	4	11	-9
COc1ccc(C2C(C(=O)c3ccco3)=C(O)C(=O)N2CCN2CCOCC2)cc1 (stereo unspecified)	8	-14	-1.3	5112	0	3	-4
CCOC(=O)CC(NC(=O)Cn1nnc(-c2ccccc2Cl)n1)c1ccc(OC)cc1 (stereo unspecified)	-5	1	1.6	1965	11	0	-1
O=C1OC2(CCCC2)OC(=O)C1=Cc1c[nH]c2ccccc12	-1	0	9.0	4547	4	16	nt
CC12CCC(=O)C=C1CCC1C2C(O)CC2(C)C(O)CCC12 (stereo unspecified)	0	2	2.0	3708	-1	2	nt
COc1cccc(NC(=O)c2cc(S(=O)(=O)N3CCc4ccccc43)cn2C)c1	-2	-7	7.1	5718	-4	1	-4
Cc1ccccc1SCC(=O)OCC(=O)Nc1ccc(N(C)C)cc1	3	-34	0.8	4164	11	-2	2
NS(=O)(=O)c1ccc(NC(=O)CN2CCCCC2)cc1	-9	-5	9.0	10637	6	5	0
C#Cc1ccc(C2C=C(C(=O)NCc3ccccc3)OC(OCC)C2CCCO)cc1 (stereo unspecified)	-3	nt	-2.6	nt	9	7	nt
N=c1c2c(-c3ccccc3)c(-c3ccccc3)n(Cc3ccccc3)c2ncn1CCCn1ccnc1	-20	-12	-5.6	2947	nt	nt	15
Cc1nc(NC(=O)/C=C/c2ccc(Cl)cc2Cl)sc1C(=O)N(C)C	13	-107	3.2	2415	5	2	-2

A few values from the list:
Mtb hypoxia inh growth result of Cc1ccccc1SCC(=O)OCC(=O)Nc1ccc(N(C)C)cc1 is entered as -2
PrP UTR inh result of O=C(OCCOc1ccc(Br)cc1)c1ccc(Cl)c(S(=O)(=O)N2CCOCC2)c1 is entered as -9
Sa ugtP lethal result of CC12CCC(=O)C=C1CCC1C2C(O)CC2(C)C(O)CCC12 (stereo unspecified) is entered as 0

The list continues:
SMILES	Sa ugtP lethal	PrP UTR inh	RN4220 kill	Autofluor counter	Mtb hypoxia inh	Mtb hypoxia inh growth	BJeLR lethal
Cc1ccc(-n2nnnc2Sc2nc([N+](=O)[O-])nn2C)cc1C	23	-4	-6.1	2733	20	27	-8
COC(=O)[C@H](C)NC(=O)Nc1cc(OC)ccc1OC	-1	-22	2.9	10932	8	6	2
COCCn1c(Cc2ccccc2)nnc1SCC(=O)Nc1ccccc1	4	-5	3.6	4378	7	-2	-9
COc1ccc(NC(=O)CSCc2ccccc2C)cc1	-1	-39	4.2	8714	17	8	10
CCN(CC(=O)Nc1ccc(NC(C)=O)cc1)C(=O)/C=C/c1cccs1	1	13	2.0	2135	14	9	9
COc1ccc(OC)c(-c2csc(NC(=O)Cc3cc(OC)c(OC)c(OC)c3)n2)c1	-4	-23	1.2	5259	13	4	0
CC(Sc1nnc(NCc2ccccc2)s1)C(=O)Nc1ccc2c(c1)C(=O)c1ccccc1C2=O (stereo unspecified)	-17	-15	2.8	2427	10	5	2
CCOc1ccc(CCNC(=O)C2=C(C)C(=O)OC23CCCCC3)cc1OCC	-1	-16	3.5	2346	8	10	5
CCOc1ccccc1NC(=O)CSc1nnc(NC(=O)c2ccco2)s1	1	-2	-2.9	nt	2	1	-9
COCCCNC(=O)Cn1cc(/C=C2\C(=O)NC(=O)N(c3ccccc3F)C2=O)c2ccccc21	9	nt	5.7	3141	4	7	9
CC1CCC2(CC1)NC(=O)N(CC(=O)c1ccc(CNC(=O)C(C)(C)C)s1)C2=O (stereo unspecified)	6	-16	6.2	3405	8	6	nt
CCOc1ccc(NC(=O)CCC(=O)c2ccc(F)cc2)cc1	11	-14	3.5	3916	0	-9	-2
COc1cc(C2C3=C(CC(C)(C)CC3=O)NC3=C2C(=O)c2ccccc23)ccc1O (stereo unspecified)	0	-11	3.6	4133	5	16	6
Cc1ccc(NC(=O)C2C3CCCC2C3c2ccccc2)c(C)c1 (stereo unspecified)	5	-25	4.6	2097	2	1	-4
Cc1ccc(N=C2NC(=O)CC(C(=O)Nc3ccc4c(c3)OCO4)S2)cc1 (stereo unspecified)	8	-14	4.5	3899	-1	-1	3
Cc1nn(-c2ccc(F)cc2)c2sc(C(=O)O)cc12	14	-21	8.1	12925	4	-1	0
S=c1[nH]nc(-c2ccccc2)n1N=Cc1c[nH]c2ccccc12	-9	nt	15	nt	6	6	nt
CCc1ccc(N(CC(=O)NC(C)(C)C)C(=O)CCC(=O)Nc2ccccn2)cc1	9	-20	6.9	3899	1	6	16
O=C(NNS(=O)(=O)c1ccccc1[N+](=O)[O-])c1cccnc1	2	-10	6.9	4252	13	4	9
O=C(CNc1ccc2ccccc2c1)N/N=C/c1ccc([N+](=O)[O-])o1	nt	-16	nt	2226	nt	nt	2
COc1ccc(N2CCN(c3oc(-c4ccco4)nc3C#N)CC2)cc1	0	2	-0.8	20889*	4	-2	0
CC12CCC(C/C1=N\N=C1\NC(=O)/C(=C\c3cccc(Br)c3)S1)C2(C)C (stereo unspecified)	nt	-15	nt	2506	nt	nt	-15
COc1ccc2c(CC(=O)OCC(=O)N3CCc4ccccc43)coc2c1	3	-11	3.1	8801	6	2	-17
COc1ccc(-c2cc(C(=O)N3CC(C)CC(C)C3)c3ccccc3n2)cc1OC (stereo unspecified)	4	-6	1.5	6244	-4	1	1
CCCCNC(=O)N1CCN(C(=O)c2ccco2)CC1	4	-13	4.4	2019	-6	1	1
S=C1NC[C@H](CC2CCCCC2)N1CCc1cccc2ccccc12	nt	-18	nt	4676	nt	nt	-12
Cc1[nH]n(-c2ccccc2)c(=O)c1N=Nc1ccc(C#N)cc1	-12	-19	-0.7	4083	3	1	4
COc1ccccc1NC(=O)C(CCS(C)(=O)=O)N1C(=O)c2ccccc2C1=O (stereo unspecified)	1	-28	-0.8	4911	nt	nt	-2
CC(C)CSc1ccc(S(=O)(=O)NCC(=O)O)cc1[N+](=O)[O-]	9	-12	3.3	4225	9	9	nt
O=C(N/N=C/c1ccc(OC(=O)c2cccc(Br)c2)cc1)c1cccnc1	nt	10	nt	4624	nt	nt	3
COc1ccccc1NS(=O)(=O)c1cc(N2Cc3ccccc3C2=N)ccc1N1CCOCC1	21	-7	-2.1	5499	4	8	3
CC(CC(=O)NCc1ccc(Cl)cc1)=NNC(=O)c1ccccc1F	7	nt	4.5	nt	16	6	nt
Cc1ccc(C(=O)NC(C)C2CC3CCC2C3)c(C)c1 (stereo unspecified)	5	-15	24	5720	4	1	1
CC1(C)Oc2ccc(C(=O)NNC(=O)Nc3ccccc3)cc2NC1=O	-1	-15	3.3	3117	6	-2	-1
CCOc1ccc(C(=O)NC(=S)Nc2cccc(S(=O)(=O)NC3=NCCC3)c2)cc1	6	54*	10	4470	0	3	23
CC(C)(C)c1[nH]nc2c1C(c1cccnc1)C(C#N)=C(N)O2 (stereo unspecified)	2	-5	4.2	12142	0	13	-2
CSc1nnc(C)c(/C=C/Nc2ccc(F)cc2F)n1	6	-3	11	3967	8	-12	-1
Cc1ccc(C)c(SCC(=O)OCC(=O)NCCNC(=O)COC(=O)CSc2cc(C)ccc2C)c1	2	-14	5.4	4078	3	-1	-3
CCCn1cc(C(=O)N(C)C2CCCN(Cc3ccccc3F)C2)c(C)n1 (stereo unspecified)	-2	0	4.7	5781	13	-7	-6
Cc1cc2oc(=O)cc(CNc3ccccc3F)c2cc1O	nt	-18	nt	3998	nt	nt	9
COc1ccc(OCCn2c(=N)n(CCO)c3ccccc32)cc1	2	-23	1.0	3198	nt	nt	2
COc1cc(OC)cc(C(=O)NCc2ccc3c(c2)cc(C)n3C)c1	6	-6	-1.8	2199	5	0	6
C#CCOCCOCCOCCNc1nc(N2CCN(C(=O)CCCCCCCCCCNC(=O)C(CCCCN)n3cc(CCCC(=O)O)nn3)CC2)nc(N2CCN(C(=O)CCCCCCCCCCNC(=O)C(C(C)O)n3cc(C)nn3)CC2)n1 (stereo unspecified)	3	nt	7.9	nt	0	4	nt
C=CCOC(=O)C1=C(C)NC(=O)NC1c1cc(Cl)cc(Cl)c1OC (stereo unspecified)	0	-11	3.0	3397	9	4	7
CN1C(=O)c2ccc(C(=O)Nc3ccc4c(c3)OCO4)cc2C1=O	1	-24	2.3	5600	12	6	-8

Filtered by structure, the entries above with fluorine
SMILES	Sa ugtP lethal	PrP UTR inh	RN4220 kill	Autofluor counter	Mtb hypoxia inh	Mtb hypoxia inh growth	BJeLR lethal
Cc1ccc(-c2nnn(CC(=O)N(c3ccccc3F)C(C(=O)NC3CCCC3)c3ccncc3)n2)o1 (stereo unspecified)	-2	-11	-1.9	5628	6	7	-2
COCCCNC(=O)Cn1cc(/C=C2\C(=O)NC(=O)N(c3ccccc3F)C2=O)c2ccccc21	9	nt	5.7	3141	4	7	9
CCOc1ccc(NC(=O)CCC(=O)c2ccc(F)cc2)cc1	11	-14	3.5	3916	0	-9	-2
Cc1nn(-c2ccc(F)cc2)c2sc(C(=O)O)cc12	14	-21	8.1	12925	4	-1	0
CC(CC(=O)NCc1ccc(Cl)cc1)=NNC(=O)c1ccccc1F	7	nt	4.5	nt	16	6	nt
CSc1nnc(C)c(/C=C/Nc2ccc(F)cc2F)n1	6	-3	11	3967	8	-12	-1
CCCn1cc(C(=O)N(C)C2CCCN(Cc3ccccc3F)C2)c(C)n1 (stereo unspecified)	-2	0	4.7	5781	13	-7	-6
Cc1cc2oc(=O)cc(CNc3ccccc3F)c2cc1O	nt	-18	nt	3998	nt	nt	9
